KCNQ2 pot = enhances the rat KCNQ2 potassium channel; O88943; B-score at 10 µM; hit rate 0.54% among 310,000; CHO-K1 KCNQ2, FluxOR thallium flux fluorescence; hits give high values;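 active = fluorescence ratio B-score at least 3 SD of library B-scores, with initial fluorescence B-score within 3 SD, cut at about 5.3 in these data; same plate scores as AID 2156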;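 note: B-score of peak minus minimum over baseline fluorescence ratio after K+ and Tl+ stimulus; positive B-score means potentiation of KCNQ2 with more thallium influx and brighter signal; only the inactives scoring about 0 or higher are listed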
Target sequence (O88943 whole entry, looked up): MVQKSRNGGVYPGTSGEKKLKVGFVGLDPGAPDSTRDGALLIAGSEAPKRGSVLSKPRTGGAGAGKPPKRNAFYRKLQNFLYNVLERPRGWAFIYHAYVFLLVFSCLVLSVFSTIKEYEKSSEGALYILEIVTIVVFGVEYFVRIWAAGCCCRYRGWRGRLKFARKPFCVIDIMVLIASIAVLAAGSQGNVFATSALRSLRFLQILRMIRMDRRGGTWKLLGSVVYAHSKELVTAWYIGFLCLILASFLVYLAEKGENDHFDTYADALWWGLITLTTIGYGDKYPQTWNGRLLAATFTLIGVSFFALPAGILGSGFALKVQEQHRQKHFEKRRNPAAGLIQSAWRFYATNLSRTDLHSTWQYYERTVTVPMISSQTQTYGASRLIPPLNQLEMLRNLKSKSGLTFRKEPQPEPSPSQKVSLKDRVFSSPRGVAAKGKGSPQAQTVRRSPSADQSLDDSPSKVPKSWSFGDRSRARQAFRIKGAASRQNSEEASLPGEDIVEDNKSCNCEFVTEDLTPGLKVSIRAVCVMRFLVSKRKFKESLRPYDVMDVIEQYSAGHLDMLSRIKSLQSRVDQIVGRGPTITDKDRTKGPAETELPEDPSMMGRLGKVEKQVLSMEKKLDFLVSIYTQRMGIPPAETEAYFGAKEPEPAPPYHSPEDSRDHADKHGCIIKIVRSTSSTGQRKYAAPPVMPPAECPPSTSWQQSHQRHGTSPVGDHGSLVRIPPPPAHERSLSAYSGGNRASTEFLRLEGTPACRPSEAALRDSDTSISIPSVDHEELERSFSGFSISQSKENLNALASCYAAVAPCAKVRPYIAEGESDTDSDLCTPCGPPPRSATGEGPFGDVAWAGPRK
KCNQ2 pot baseline = second read-out of KCNQ2 pot, no call of its own (marks repeat the call); B-score; compound at 10 µM; measured here: initial fluorescence intensity artifact check;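 brightness before thallium and not channel activity; 0 = typical well and far values either way flag optical interference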
The depositor's hits bear a star; & = joins results of further samples. Not all compounds are listed. The share of hits here may be higher or lower than overall.

SMILES | KCNQ2 pot | KCNQ2 pot baseline
O=C(NN=C1CCN(Cc2ccccc2)CC1)c1cc2ccccc2cc1O | 0.4 | -1.1
OCCC1CN(Cc2ccc3cccc(F)c3n2)CCN1Cc1ccccc1 (configuration not stated) | 0.99 | -0.44
O=C(NCCc1ccccc1)c1ccc2c(c1)OCO2 | 1.1 | 0.76
O=C(N/N=C/c1ccc2c(c1)OCO2)c1ccc(COc2cccc3cccnc23)cc1 | 0.07 | -0.32
CC[n+]1c(C)n(C)c2cc(S(=O)(=O)N(C)C)ccc21 | 0.57 | 0.03
Cc1cc(C)nc(N/N=C/c2ccco2)n1 | 1.9 | 0.07
C(=N\N1CCN(c2ccccn2)CC1)/c1ccco1 | 3.1 | -0.69
Cc1ccc(NC(=O)CN(C)CC(=O)Nc2ccc(N3CCOCC3)cc2)c(C)c1 | 1.2 | -0.85
COc1ccc(CN2CCOCCOCCN(Cc3ccc(OC)cc3)CCOCCOCC2)cc1 | 0.83 | -1.4
COc1ccc(C(=O)Cc2cc3ccccc3oc2=O)cc1 | 0.14 | -0.3
O=C(CCCOc1ccccc1)Nc1ccncc1 | 1.1 | -0.77
C/C(=N\Nc1nc(C)cc(-c2ccccc2)n1)c1ccc(O)cc1 | 0.67 | -0.18
COc1ccc(N(C(=O)COc2cccc(C)c2)S(=O)(=O)c2ccc(C)cc2)cc1 | 0.79 | 0.03
CCOC(=O)N1CCC(NC(=O)Cn2cccc2C(=O)c2ccccc2C)CC1 | 2.4 | -0.86
CCOC(=O)C1=C(COC(=O)/C=C/c2ccc(Cl)cc2)NC(=O)NC1C (configuration not stated) | 0.03 | -0.92
Cc1ccc(NC(=O)CCNC(=O)c2ccc(Br)cc2)nc1 | 0.37 | 0
CCc1ccc(S(=O)(=O)N(C(=O)c2ccncc2)c2ccc(OC(=O)c3ccncc3)cc2)cc1 | 0.06 | -0.6
CN1CCN(CCC(=O)Nc2cccc(Br)c2)CC1 | 0.03 | -0.63
CCOC(=O)c1c(C)[nH]c(C)c1C(=O)COc1ncnc2ccccc12 | 1.6 | -0.47
CCC(C)(CC(=O)O)CC(=O)Nc1cc(C(F)(F)F)cc(C(F)(F)F)c1 (configuration not stated) | 1.3 | 0.39
O=C1CC(c2ccc(Cl)cc2)n2nc(NS(=O)(=O)c3ccc(F)cc3)nc2N1 (configuration not stated) | 0.7 | 0.07
COc1ccc(Cc2c(O)nc(SCC(=O)NC34CC5CC(CC(C5)C3)C4)[nH]c2=O)cc1 | 0.03&0.33 | 0.83&0.32
CC1=C(C(=O)NC2CC(C)(C)Cc3c2cnn3-c2cccc(F)c2)OCCO1 (configuration not stated) | 0.15 | -1.4
COc1cc(NC(=O)CSc2nc(C)cs2)cc(OC)c1 | 2.4 | -1.5
CC(C)(C)C(=O)Nc1cccc(-c2nc3ccccc3[nH]2)c1 | 0.7 | 0.47
Cc1ccc2nc(N/C(=N/S(=O)(=O)c3ccc(F)cc3F)c3ccccc3)sc2c1 | 0.58 | -0.1
COc1ccc(OC)c(-n2nnnc2SCC(=O)Nc2nc(C)c(C)s2)c1 | 0.6 | -0.72
COc1cccc(C(=O)N2CCC(O)(c3cccnc3)CC2)c1 | 0.47 | 0.03
Cc1ccc(-c2nnc3ccc(SCC(=O)N4CCc5ccccc54)nn23)cc1 | 0.06 | 1.9
CN(c1ccc(OCC(=O)OCc2nnc(-c3ccccc3)o2)cc1)S(=O)(=O)c1ccc(Cl)cc1 | 0.02 | -0.99
Cc1cccc(N2CSC3=C(C#N)C(c4ccc(C)o4)CC(=O)N3C2)c1 (configuration not stated) | 2.2 | 1.6
CCOC(=O)c1cnc(N2CCN(c3ccccc3)CC2)[nH]c1=O | 0.26 | 0.97
O=C(Cn1nnc(-c2ccccc2)n1)OC1CCOC1=O (configuration not stated) | 0.64 | 0.59
O=C(O)c1cc(-c2ccc(Cl)c(Cl)c2)n(-c2ccc(F)cc2)n1 | 0.45 | 1.1
C#CCNC(=O)C1=C[C@@H](c2coc3ccccc3c2=O)[C@H](CCCO)[C@@H](OCC)O1 | 0.04 | -3.2
O=C(NNC1=NCCCCC1)c1cccc([N+](=O)[O-])c1 | 0.12 | 0.87
COCCNC(=O)Cn1ccc2cc(S(=O)(=O)N3CCCCCC3)ccc21 | 0.16 | -1.5
Cc1ccc(S(=O)(=O)NCC(=O)N2CCOCCOCCOCC2)cc1 | 0.61 | 1.3
CCN(CC)CCCNC(=O)c1c(O)c2cc(F)cc3c2n(c1=O)C(C)CC3 (configuration not stated) | 1.9 | 1.2
CN(C(=O)COC(=O)COc1ccccc1F)C1CCS(=O)(=O)C1 (configuration not stated) | 1.8 | -0.65
COc1ccc2c(C)cc(SCC(=O)Nc3c(C)n(C)n(-c4ccccc4)c3=O)nc2c1 | 0.07 | -1.3
CCCC1(C(=O)OC)NC(c2ccc(OC)c(OC)c2)C2C(=O)N(c3ccc4c(c3)OCO4)C(=O)C21 (configuration not stated) | 0.12 | 1.4
Nc1cc(=O)[nH]c(SCC(=O)Nc2cc([N+](=O)[O-])ccc2Cl)n1 | 0.59 | 0.07
O=C1CCCc2ccccc2N1 | 0.92 | -1.3
O=C(COC(=O)CCSc1ccccc1)NCc1ccccc1Cl | 0.48 | -1

Sorted by the number under KCNQ2 pot (highest first): 7 of the compounds above.
SMILES | KCNQ2 pot | KCNQ2 pot baseline
Cc1cccc(N2CSC3=C(C#N)C(c4ccc(C)o4)CC(=O)N3C2)c1 (configuration not stated) | 2.2 | 1.6
O=C(Cn1nnc(-c2ccccc2)n1)OC1CCOC1=O (configuration not stated) | 0.64 | 0.59
Nc1cc(=O)[nH]c(SCC(=O)Nc2cc([N+](=O)[O-])ccc2Cl)n1 | 0.59 | 0.07
O=C(COC(=O)CCSc1ccccc1)NCc1ccccc1Cl | 0.48 | -1
O=C(O)c1cc(-c2ccc(Cl)c(Cl)c2)n(-c2ccc(F)cc2)n1 | 0.45 | 1.1
CCCC1(C(=O)OC)NC(c2ccc(OC)c(OC)c2)C2C(=O)N(c3ccc4c(c3)OCO4)C(=O)C21 (configuration not stated) | 0.12 | 1.4
C#CCNC(=O)C1=C[C@@H](c2coc3ccccc3c2=O)[C@H](CCCO)[C@@H](OCC)O1 | 0.04 | -3.2

Continuation.
SMILES | KCNQ2 pot | KCNQ2 pot baseline
Cc1cccc2nc(CSc3nnc4ccccn34)cn12 | 0.25 | 2.3
O=C(NCc1ccccn1)Nc1cccc(NC(=O)NCc2ccccn2)c1 | 0.27 | 0.39
O=C(O)CCc1nc(-c2ccccc2Cl)no1 | 0.59 | 0.02
COC(=O)c1cc(OC)c(OC)cc1NC(=S)N1CCCC1 | 0.68 | -0.71
COc1nc(OC)nc(N2CCC(C(=O)NCc3ccco3)CC2)n1 | 0.9 | -1.1
COc1ccccc1C(=O)NC(=O)COC(=O)Cn1[nH]c(=O)c2ccccc2c1=O | 0.53 | -0.78
Cc1ccc(O)c(NC(=O)C2=CC(c3cccs3)=NS(=O)(=O)N2C)c1 | 0.98 | -0.22
COCC(=O)NNC(=O)c1ccc(OC)cc1 | 0.97 | 1.1
COc1ccc(S(=O)(=O)N2CCOCC2)c2ccccc12 | 1.1 | -2
O=C(NCCc1nnc2ccc(SCC(=O)N3CCCC3)nn12)c1ccccc1 | 1.1 | 0.34
Cc1ccc(Sc2cc(C(=O)c3ccccc3C(=O)O)ccc2[N+](=O)[O-])cc1 | 1.7 | -2.8
CN(C)CCn1c(=O)n(-c2ccc(F)cc2)c(=O)c2c3c(sc21)CCCCC3 | 0.35 | -1.1
Cc1cc(NC(=O)CCC(=O)N(c2ccccc2)C(C(=O)NC2CCCC2)c2ccccc2)no1 (configuration not stated) | 1.1 | 0.09
CCC1=C(OC(=O)N(CC)CC)N2C(=O)OC(=NCC(=O)OC)[C@]2(C)[C@H]2C1=CC[C@H]1C(=O)NC(=O)[C@H]12 | 1.6 | -0.07
O=C(CN1CCOCC1)NCCC12CC3CC(CC(C3)C1)C2 | 0.97 | 0.98
O=[N+]([O-])c1ccccc1CNC1CCCc2ccccc21 (configuration not stated) | 0.96 | -1.1
COc1cccc(NC(=O)CCCn2c(=S)[nH]c3ccccc3c2=O)c1 | 0.54 | -0.94
O=c1[nH]c(=O)c2ncc(-c3ccc(Cl)cc3)nc2[nH]1 | 0.22 | 1.7
S=c1nc2ccccc2c2nc(-c3ccccc3Cl)[nH]n12 | 0.94 | -0.94
c1ccc2c(c1)CCCN2c1nc2ccccc2n2cnnc12 | 1.4 | -2.9
COc1cccc(CN(C(=O)c2ccccc2Cl)C2CCS(=O)(=O)C2)c1 (configuration not stated) | 0.79 | -1.1
O=C(NC1CCCCC1)C(c1ccco1)N(C(=O)c1csnn1)C1CCCC1 (configuration not stated) | 1.6 | -0.74
Cc1cccc(Nc2nc(-c3sc(C)nc3C)cs2)c1 | 0.1 | -1.8
C=CCOc1cccc(C2/C(=C(\O)c3ccc4c(c3)OCCO4)C(=O)C(=O)N2Cc2cccnc2)c1 (configuration not stated) | 1.1 | 0.12
COc1ccc(-n2c(SCC(N)=O)nnc2-c2ccco2)cc1 | 0.1 | 0.01
COc1cccc(-c2c(C(=O)N/N=C/c3ccc(C)s3)nnn2-c2nonc2N)c1 | 0.97 | 0.01
CCOc1ccccc1NC(=S)N(CCC(C)C)C1CCN(C(C)=O)CC1 | 0.39 | 1.5
Cc1cc(NC(=O)Cn2nc(C(=O)O)c3ccccc3c2=O)ccc1Br | 0.19 | 0.42
COc1ccc(C2C(C#N)=C(N)Oc3cc4c(cc32)OCO4)cc1 (configuration not stated) | 0.26 | -1.3
Cc1ccc(NC(=O)c2nsc(Cl)c2Cl)cc1 | 0.33 | 0.61
O=C(CCc1nnc(C2(c3ccc(Cl)cc3)CCC2)o1)NCCCn1cccn1 | 0.37 | 0.61
O=c1cc(N2CCN(c3ccccc3Cl)CC2)[nH]c(=O)n1Cc1ccc(F)cc1 | 1.1 | -0.62
Cn1c(/N=C/c2c[nH]c3ccccc23)nc2ccccc21 | 0.82 | -0.68
O=C(CN1C(=O)C2C3C=CC(C3)C2C1=O)OCC(=O)c1ccc(Cl)cc1 (configuration not stated) | 1.1 | 0.02
O=C(NC1CCCCC1)N1CCN(CCc2ccccc2)CC1 | 0.64 | -0.65
O=C(COC(=O)CCC(=O)c1cccs1)Nc1ccccc1[N+](=O)[O-] | 2.4 | -0.93
CNC(=O)N1CCN(C(=O)NC)CC1 | 1.1 | -1.2
COc1ccccc1OCC(=O)Nc1c2c(nn1-c1ccc(F)cc1)CS(=O)(=O)C2 | 1.3 | -0.27
CC(=O)c1cccc(NCC(=O)Nc2cc(S(=O)(=O)N3CCCCC3)ccc2C)c1 | 1.4 | 1
CCC(=O)Nc1ccc(C(=O)NNC(=O)c2ccc([N+](=O)[O-])cc2)cc1 | 0.04 | -2.7
Nc1oc2ccccc2c(=O)c1-c1ccc2c(c1)OCO2 | 1.1 | -3.4
CCOc1ccc(-c2n[nH]c(=S)o2)cc1 | 2.5 | 0.32
O=C(OCc1ccc([N+](=O)[O-])cc1)c1cnc(Cl)c(Cl)c1 | 0.23 | -0.43
CC(C)(C)c1ccc2c(c1)OC(C(=O)N/N=C/c1ccc([N+](=O)[O-])o1)CO2 (configuration not stated) | 0.76 | 0.92
CCN(CC)CCn1c(/N=C/c2ccc(OC)c(OC)c2)nc2ccccc21 | 1.3 | 0.74

Reprinted at random: three entries already listed, in no set order.
SMILES | KCNQ2 pot | KCNQ2 pot baseline
CNC(=O)N1CCN(C(=O)NC)CC1 | 1.1 | -1.2
Cn1c(/N=C/c2c[nH]c3ccccc23)nc2ccccc21 | 0.82 | -0.68
Nc1oc2ccccc2c(=O)c1-c1ccc2c(c1)OCO2 | 1.1 | -3.4

(cont.)
SMILES | KCNQ2 pot | KCNQ2 pot baseline
COc1ccccc1C(=O)CSc1cccc[n+]1[O-] | 1.3 | -0.67
COc1ccc(-n2c(O)c(Cc3ccccc3)c(=O)n3nc(-c4ccccc4)c(=O)cc23)cc1 | 1.8 | -1.1
COc1ccc(-c2csc(=Nc3c(C)n(C)n(-c4ccccc4)c3=O)n2C(C)(C)C)cc1 | 0.05 | -0.08
CCOC(=O)COc1ccccc1/C=N/Nc1nnc2c3ccccc3n(C)c2n1 | 0.06 | -0.03
Cc1ccccc1C(=O)N1CCN(c2ccc(NC(=O)c3cccnc3Cl)cc2)CC1 | 0.25 | 0.57
Clc1ccccc1N1CCN(Cc2ccco2)CC1 | 0.2 | -0.94
COC(=O)c1c(NC(=O)C2C3CCC(O3)C2C(=O)O)sc2c1CCCCCC2 (configuration not stated) | 1.6 | -0.43
Cn1c(=S)[nH]c2scc(-c3cccs3)c2c1=O | 19* | 0*
N#C/C(=C/c1cccn1-c1cccc(C(=O)O)c1)c1ccc(Cl)cc1 | 0.01 | -0.14
Cc1ccccc1NC(=S)N(CCCN1CCOCC1)Cc1cccs1 | 0.04 | -0.4
CC(C)c1cc(C(N)=O)c(NC(=O)c2cccc(COc3ccc(Br)cc3)c2)s1 | 1.5 | 0.01
O=S(=O)(NCc1cccnc1)c1cccc2cccnc12 | 1.1 | 0.93
C=CCn1c2ccccc2c2n[nH]c(=S)nc21 | 2.2 | 0.46
COc1ccc(CCNC(=O)CCn2c(SCC#N)nc3ccccc3c2=O)cc1OC | 1.2 | 0.53
CC(Cc1cccs1)NC(=O)Nc1ccccc1 (configuration not stated) | 2.3 | 0
CC(C)NC(=O)Cn1c(SCC(=O)NC2CCCC2)nc2ccccc21 | 0.56 | -0.01
CCOC(=O)NN1C(=O)c2ccccc2NC1c1ccc(OC)cc1OC (configuration not stated) | 0.33 | -1.1
CCOC(=O)c1c(C)c(C(=O)O)n(C)c1C | 1.6 | -0.03
CCCn1c(SCC(=O)Nc2ccc(OC)cc2)nnc1-c1ccncc1 | 0.15 | 0.37
COc1ccc(CNC(=O)C2CC(c3ccc(OC)cc3)=NO2)cc1 (configuration not stated) | 2.3 | 1
Cn1c(CNc2ccccc2)nc2ccccc21 | 0.47 | -0.06
COc1cc(C(C)=O)ccc1OCC(O)CN1CCN(c2ccccc2)CC1 (configuration not stated) | 0.61 | 0.96

High-throughput results (PubChem BioAssay)
